ClpP mod: qHTS Assay for Activators of ClpP | AID 651965, 2013 | 1.9% of 340,000 active | purified B. subtilis ClpP, FRET peptide cleavage, 20 min | Potency, µM (top dose mostly 57.5 µM), for inactives: top-dose activity change, negative = active; active = well fitted falling curve with a large enough effect; inconclusive = small, poorly fitted or top-dose-only effect; inactive = no such curve, though single readings can be large or run the other way; further: the source files actives as falling curves though it sought activators and does not explain the sign; nearly all actives have a fitted effect of over 65% in size; many hits overshoot -100%
Target sequence (P80244 whole entry, looked up): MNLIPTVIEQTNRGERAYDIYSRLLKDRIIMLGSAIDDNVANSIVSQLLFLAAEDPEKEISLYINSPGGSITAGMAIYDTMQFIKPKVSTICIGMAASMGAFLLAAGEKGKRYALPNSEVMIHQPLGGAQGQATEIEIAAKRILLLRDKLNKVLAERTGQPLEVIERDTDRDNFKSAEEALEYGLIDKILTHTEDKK
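ClpP 10 microg/mL final, pH 8 Tris/KCl buffer with BSA, glycerol, Tween-20; compound pinned in; FRET-FV substrate; RT 20 min; Ex320/Em430; ΔFRET vs ADEP 5.8 microM, DMSO, no enzyme.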
PINK1 expr mod: PINK1 expression modulation; PINK1 immunofluorescence, high-content cytometry, 24 h; Potency, µM (series often up to 76.6 µM), for inactives: at the top dose activation (PINK1 increase), actives largely listed as activators; 0.2% of 410,000 active; AID 624263; active = well fitted activation curve with a large enough effect; inconclusive = small, poorly fitted or top-dose-only effect; inactive = flat fitted curve, though single readings scatter; cell line not stated here;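 further: % of control where 0% means no effect; nearly all actives have a fitted effect of over 65% in size; a mitochondrial uncoupler was the plate control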
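Compound titrations (5 concentrations, 24 h) on a stable cell line; DMSO and CCCP controls. Endpoint: fixed-cell PINK1 immunofluorescence with mitochondrial, cell and nuclear markers, scanned by microplate cytometer.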
* marks the source's active call; other numbers are inactive results. Potency means the concentration at half of the fitted maximal effect. A portion of the library (hit frequency here may not be typical).

For COc1ccc(C(=O)N2CCN(c3nc4c(OC)cccc4s3)CC2)cc1OC the results were ClpP mod 0.3% and PINK1 expr mod 1.2%.
Screening COCCN1C(=O)c2[nH]nc(-c3ccccc3O)c2C1c1ccc(Cl)c(Cl)c1 (stereo not given) returned ClpP mod 4.7% and PINK1 expr mod 1.1%.
O=C(NCCN1CCC(n2c(=O)[nH]c3ccccc32)CC1)c1ccc(F)c(C(F)(F)F)c1 was read as ClpP mod -0.5% and PINK1 expr mod 1.1%.
O=C(NCc1ccc2c(c1)CCN2C(=O)c1ccc(F)cc1)c1cc2ccccc2[nH]1 was read as ClpP mod 1.6% and PINK1 expr mod 1.8%.
`CC1(C)CCC(c2ccc(Cl)cc2)=C(CN2CCN(c3ccc(C(=O)NS(=O)(=O)c4ccc(N[C@H](CCN5CCOCC5)CSc5ccccc5)c(S(=O)(=O)C(F)(F)F)c4)cc3)CC2)C1` gave ClpP mod -12% and PINK1 expr mod 0.5%.
`Cc1ccc(NC(=O)CSc2nc3ccccc3c3nc(CCn4c(C)nc5ccccc54)nn23)cc1F` gave ClpP mod 2.8% and PINK1 expr mod -0.6%.
For OC[C@@H]1O[C@H](n2cnc3c(SCc4ccccc4)ncnc32)[C@H](O)[C@H]1O the results were ClpP mod -1.1% and PINK1 expr mod -0.6%.
For CN1C(=O)C(C)(C)c2cc(S(=O)(=O)NCc3ccc(C(=O)Nc4ccc(Cl)cc4)cc3)ccc21 the results were ClpP mod -4.9% and PINK1 expr mod 0.1%.
For Cc1ccc(N2CC(c3nc4ccccc4n3CCC3CCCCC3)CC2=O)cc1 (stereo not given) the results were ClpP mod 0.6% and PINK1 expr mod -0.9%.
Screening COc1cccc(-n2c(=O)c3c(C)c(C)sc3n(CC(=O)NCc3ccccc3)c2=O)c1 returned ClpP mod 0.8% and PINK1 expr mod 0.8%.
`CCCCOc1ccc(C(=O)Nc2ccc3c(c2)N(C(C)=O)CCC3)cc1` gave ClpP mod -9.4% and PINK1 expr mod 0.5%.
`COc1ccc(NS(=O)(=O)c2ccc3[nH]c4c(c3c2)CCCC4)c(OC)c1` gave ClpP mod -4.2% and PINK1 expr mod 1.2%.
For CCc1ccc(NS(=O)(=O)c2ccc(-c3cc(C)no3)cc2)cc1 the results were ClpP mod -2.1% and PINK1 expr mod 0.5%.
For COC(=O)[C@@]1(Sc2ccc(C)cc2)CC(=O)N(C(=O)c2ccccc2)[C@@H]1c1ccccc1 the results were ClpP mod 0.0% and PINK1 expr mod -0.1%.
For Cc1cc(Cl)ccc1NC(=O)Cc1ccc(NC(=O)N2CCCCc3ccccc32)cc1 the results were ClpP mod -0.4% and PINK1 expr mod -0.3%.
For CCCCN1C(C(=O)c2ccccc2)=C(OC(C)=O)c2ccccc2S1(=O)=O the results were ClpP mod -1.3% and PINK1 expr mod 6.9%.
Screening O=C(Cn1cc(SCc2c(F)cccc2Cl)c2ccccc21)N1CCCC1 returned ClpP mod inconclusive and PINK1 expr mod 3.6%.
For Cc1cc(Nc2cc(F)ccc2C)nc(-n2nc(C)cc2C)n1 the results were ClpP mod -4.0% and PINK1 expr mod -0.4%.
Screening CCOC(=O)c1c(C)[nH]c(CCC(=O)Nc2ccc(C)c(F)c2)c1C returned ClpP mod 1.2% and PINK1 expr mod -1.3%.
Cc1ccc2c(=O)cc(C(=O)Nc3c(C)n(C)n(-c4ccccc4)c3=O)oc2c1C was read as ClpP mod -7.9% and PINK1 expr mod 1.3%.
CCOc1ccc(CN2CCc3nc(Nc4ccc5c(c4)OCCO5)ncc3C2)cc1 was read as ClpP mod -0.4% and PINK1 expr mod -0.3%.
For O=C(c1ccc2c(c1)N(Cc1ccccc1F)C(=O)c1ccccc1S2(=O)=O)N1CCCCC1 the results were ClpP mod -0.8% and PINK1 expr mod -0.4%.
Screening Cc1cccc(C)c1Nc1c(-c2ccsc2)nc2ccccn12 returned ClpP mod 28µM* and PINK1 expr mod 3.2%.
Screening Cc1c(C)n(Cc2ccc(F)cc2)c2ccc(C(=O)N3CCN(c4ccc(Cl)cc4)CC3)cc12 returned ClpP mod -23% and PINK1 expr mod -1.3%.
For CCOc1ccc(CCNC(=O)c2nn(C)c3c2CSc2ccc(C)cc2-3)cc1OCC the results were ClpP mod -3.1% and PINK1 expr mod 4.0%.
CCc1cc(C(=O)Nc2cnn(Cc3ccc(F)cc3)c2)no1 was read as ClpP mod -0.8% and PINK1 expr mod 14%.
For COc1ccccc1CNC(=O)c1cnn(-c2ccc(F)cc2F)c1C1CCN(C(=O)OC(C)(C)C)CC1 the results were ClpP mod 1.6% and PINK1 expr mod 0.4%.
COc1ccc(C2C(C(=O)Nc3cccnc3)=C(C)Nc3nc(SCc4ccccc4)nn32)cc1 (stereo not given) was read as ClpP mod -0.8% and PINK1 expr mod -0.6%.
Screening CCC1CN(C(=O)Nc2ccccc2C(F)(F)F)c2ccccc2O1 (stereo not given) returned ClpP mod 0.0% and PINK1 expr mod 0.9%.
For O=C(Nc1ccc2nc(SCC(=O)N3CCOCC3)sc2c1)c1cccc(F)c1 the results were ClpP mod 0.2% and PINK1 expr mod 0.1%.
Screening O=C(Cn1c(=O)n(-c2ccc(Cl)cc2)c(=O)c2c3c(sc21)CCCCC3)Nc1cccc(Cl)c1 returned ClpP mod 1.4% and PINK1 expr mod -0.1%.
For O=C(CSc1nc(=O)n(Cc2ccncc2)c2c1CCC2)Nc1ccc(F)cc1F the results were ClpP mod -0.2% and PINK1 expr mod -0.8%.
For COc1ccccc1C(=O)N1c2ncnn2C2(CCCCC2)[C@@H]2CCCC[C@@H]21 the results were ClpP mod -1.6% and PINK1 expr mod -1.8%.
Screening Cc1nc2nc(CNC(=O)OC(C)(C)C)nn2c(C)c1CCC(=O)NCc1ccccc1Cl returned ClpP mod -1.5% and PINK1 expr mod 1.4%.
For COc1ccc(CNC(=O)c2ccc(NC(=O)N3CCSc4ncccc43)cc2)cc1 the results were ClpP mod inconclusive and PINK1 expr mod 2.9%.
Screening O=S(=O)(c1ccc2[nH]c3c(c2c1)CCCCC3)N1CCN(c2cccc(Cl)c2)CC1 returned ClpP mod -20% and PINK1 expr mod 0.9%.
Screening NS(=O)(=O)c1ccc(NC(=O)CN2C(=O)COc3ccc(Cl)cc32)cc1 returned ClpP mod -4.6% and PINK1 expr mod 9.1%.
For COc1ccc(OC)c(NC(=O)CCc2c(C)nn(-c3ccc(N4CCCC4)nn3)c2C)c1 the results were ClpP mod 0.6% and PINK1 expr mod 0.1%.
`CCOc1ccccc1Oc1nc(C)nc2c1oc1ccccc12` gave ClpP mod 0.1% and PINK1 expr mod 11%.
`Cc1ccc(OCC(=O)Nc2ccc(-c3nc4ccccc4o3)cc2)c(C)c1` gave ClpP mod -15% and PINK1 expr mod -0.6%.
O=C(Nc1nnc(SCc2cc(=O)c3ccccc3[nH]2)s1)c1ccccc1 was read as ClpP mod -0.4% and PINK1 expr mod 3.0%.
For COc1ccc(Cl)cc1-n1nnc(-c2nc(-c3ccc4c(c3)OCO4)no2)c1C the results were ClpP mod -2.8% and PINK1 expr mod 2.0%.
Screening CNC(=O)c1cnc2sc(N3CCCCCC3)nn2c1=O returned ClpP mod 4.3% and PINK1 expr mod 0.9%.
For O=C(NCc1cccc(Cl)c1)c1ccc2c(c1)nc1n2CCOC1 the results were ClpP mod 0.0% and PINK1 expr mod 0.7%.
CCC(Sc1nc2nccnc2c(=O)n1Cc1ccccc1Cl)C(=O)NC1CCCCC1 (stereo not given) was read as ClpP mod -3.3% and PINK1 expr mod 7.4%.
For CSc1ccc(/C=C/c2nc3ccccc3n2S(=O)(=O)c2cccc(Cl)c2)cc1 the results were ClpP mod 4.3% and PINK1 expr mod inconclusive.
`CCN(CC)CCOC(=O)c1ccc(Nc2c3c(nc4ccccc24)CCC3)cc1` gave ClpP mod -19% and PINK1 expr mod 1.1%.
For CCN(Cc1ccccc1)C(=O)Cn1c(=O)n(Cc2ccccc2)c(=O)c2c1c1cc(OC)ccc1n2C the results were ClpP mod 0.71µM* and PINK1 expr mod 1.7%.
`CCOc1ccccc1NC(=O)C(=O)c1cc(C)n(-c2cccc(C)c2C)c1C` gave ClpP mod -18% and PINK1 expr mod -0.4%.
`O=S(=O)(Nc1cc(F)ccc1F)c1ccc2[nH]c3c(c2c1)CCCC3` gave ClpP mod -3.5% and PINK1 expr mod 13%.
`Cc1ccc(CNC(=O)N2CCC(CN3CCC(C)CC3)CC2)cc1` gave ClpP mod -1.0% and PINK1 expr mod 0.3%.
For Cc1ccc2c(c1)-c1onc(C(=O)N3CCN(c4cc(Cl)ccc4C)CC3)c1CO2 the results were ClpP mod 0.1% and PINK1 expr mod -0.9%.
Screening Cn1c(=O)n(C)c2cc(CNCc3ccccc3)ccc21 returned ClpP mod -1.3% and PINK1 expr mod -0.9%.
Screening CSc1cccc(NS(=O)(=O)c2ccc3[nH]cc(C(=O)N4CCCCCC4)c(=O)c3c2)c1 returned ClpP mod -15% and PINK1 expr mod 5.4%.
For CCN(CC)S(=O)(=O)c1ccc(C(=O)NCCSc2c(-c3ccc(F)cc3)[nH]c3ccccc23)cc1 the results were ClpP mod -6.4% and PINK1 expr mod 1.1%.
COc1ccc(C2=NC(C)(C)N(CC(=O)Nc3cc(OC)cc(OC)c3)C2=O)cc1 was read as ClpP mod -4.8% and PINK1 expr mod 0.4%.
Screening COc1ccc(NC(=O)Cn2cnc3ccc(S(=O)(=O)N4CCC(C)CC4)cc3c2=O)c(OC)c1 returned ClpP mod -3.4% and PINK1 expr mod 1.0%.
`O=C(NCCSc1c[nH]c2ccccc12)c1ccccc1Cl` gave ClpP mod -0.1% and PINK1 expr mod 0.6%.
Screening CC(=O)C1=C(c2ccc(Cl)c(Cl)c2)N(C(C)=O)n2cnnc2S1 returned ClpP mod -1.4% and PINK1 expr mod inconclusive.
`Cc1ccc(N(C)S(=O)(=O)c2ccc3[nH]c(=O)ccc3c2)cc1` gave ClpP mod 6.4% and PINK1 expr mod -1.1%.
Screening O=[N+]([O-])c1nccn1CC(O)CO (stereo not given) returned ClpP mod 0.5% and PINK1 expr mod 0.5%.
`Cc1cc(C(=O)NCc2ccccc2)c2c(C)nn(-c3cccc(F)c3)c2n1` gave ClpP mod 4.4% and PINK1 expr mod 2.8%.
`CCOC(=O)Cn1c(=O)n(CC2CCCO2)c2nc(-c3cccc(C)c3)nc(C(N)=O)c21` (stereo not given) gave ClpP mod 3.9% and PINK1 expr mod 4.2%.
Screening O/N=C(/CI)c1ccc2ccccc2c1 returned ClpP mod -7.3% and PINK1 expr mod 0.1%.
Screening C[N+]1(CC(=O)c2ccc3c(c2)CCCC3)CCOCC1 returned ClpP mod 4.8% and PINK1 expr mod 0.5%.
For CCCN1Cc2cccc(C(=O)Nc3ccc(OC)cc3OC)c2C1=O the results were ClpP mod 0.9% and PINK1 expr mod 2.9%.
For CN1C(C(=O)c2ccccc2)=C(OC(=O)c2ccc(Br)cc2)c2ccccc2S1(=O)=O the results were ClpP mod 0.6% and PINK1 expr mod inconclusive.
Screening Nc1[nH]c(C(=O)c2ccccc2)c(-c2ccc(Cl)cc2)c1C(=O)NCc1ccccc1 returned ClpP mod -3.1% and PINK1 expr mod 2.8%.
`COC(=O)c1ccc(N2C(c3ccsc3)=Cc3cc4c(cc3C2CC(=O)c2ccco2)OCO4)cc1` (stereo not given) gave ClpP mod -11% and PINK1 expr mod -1.2%.
CCOc1ccccc1NC(=O)c1c(NC(=O)c2ccccc2)sc2c1CCCC2 was read as ClpP mod -0.6% and PINK1 expr mod 2.8%.
`COc1ccc(CNC(=O)COCc2cc(-c3cccs3)on2)cc1` gave ClpP mod -0.5% and PINK1 expr mod 0.1%.
`COc1ccccc1N1CCN(S(=O)(=O)c2c(C)sc3ncn(CC(=O)N(C)c4ccc(Cl)cc4)c(=O)c23)CC1` gave ClpP mod -1.5% and PINK1 expr mod 1.1%.
Screening CC(C)C[C@H]1CN(CCCC[C@@H]2CNC(=O)C(=O)N2CC2CCCCC2)C(=O)C(=O)N1CCc1ccc(O)cc1 returned ClpP mod 1.7% and PINK1 expr mod 0.0%.
`O=C(CC1NCCNC1=O)Nc1ccccc1F` (stereo not given) gave ClpP mod 1.2% and PINK1 expr mod 1.6%.
For Cc1c(C(=O)Nc2ccc(F)cc2F)nnn1-c1ccccc1Br the results were ClpP mod -2.3% and PINK1 expr mod 0.4%.
COc1cc2ccccc2cc1C(=O)N1CCN(c2nc3ccc(F)cc3s2)CC1 was read as ClpP mod -26% and PINK1 expr mod -1.7%.

Gathered by group: the compounds so far with a CF3 group (three)
O=C(NCCN1CCC(n2c(=O)[nH]c3ccccc32)CC1)c1ccc(F)c(C(F)(F)F)c1 was read as ClpP mod -0.5% and PINK1 expr mod 1.1%.
`CC1(C)CCC(c2ccc(Cl)cc2)=C(CN2CCN(c3ccc(C(=O)NS(=O)(=O)c4ccc(N[C@H](CCN5CCOCC5)CSc5ccccc5)c(S(=O)(=O)C(F)(F)F)c4)cc3)CC2)C1` gave ClpP mod -12% and PINK1 expr mod 0.5%.
Screening CCC1CN(C(=O)Nc2ccccc2C(F)(F)F)c2ccccc2O1 (stereo not given) returned ClpP mod 0.0% and PINK1 expr mod 0.9%.

Quoted from the listing, 3 compounds:
`O=C(CC1NCCNC1=O)Nc1ccccc1F` (stereo not given) gave ClpP mod 1.2% and PINK1 expr mod 1.6%.
For Cc1c(C(=O)Nc2ccc(F)cc2F)nnn1-c1ccccc1Br the results were ClpP mod -2.3% and PINK1 expr mod 0.4%.
COc1cc2ccccc2cc1C(=O)N1CCN(c2nc3ccc(F)cc3s2)CC1 was read as ClpP mod -26% and PINK1 expr mod -1.7%.
